# PINK1 expr mod: PINK1 expression modulation | Potency, µM (series often up to 76.6 µM), without a hit: at the highest dose activation (PINK1 increase), hits mostly activators | hit rate 0.2% among 410,000 | PINK1 immunofluorescence, high-content cytometry, 24 h; active = well fitted activation curve with a large enough effect; inconclusive = small, poorly fitted or top-dose-only effect; inactive = flat fitted curve, though single readings scatter; cell line not stated here;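 also: potency is read from the fitted curve at half-maximal effect; % of control where 0% means no effect; nearly all actives have a fitted effect of over 65% in size; a mitochondrial uncoupler was the plate control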
#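 Cells are seeded, rested 12 hours, then given compound at five concentrations or DMSO for 24 hours. After fixation, blocking and antibody staining, PINK1 amount and mitochondrial localization are scored; CCCP serves as control.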
# ClpP mod: qHTS Assay for Activators of ClpP; purified B. subtilis ClpP, FRET peptide cleavage, 20 min; Potency, µM (titrated, usually from 57.5 µM), without a hit: at the highest dose activity change, negative = active; hit rate 1.9% among 340,000; AID 651965, 2013; active = well fitted falling curve with a large enough effect; inconclusive = small, poorly fitted or top-dose-only effect; inactive = no such curve, though single readings can be large or run the other way; also: potency is read from the fitted curve at half-maximal effect; the source files actives as falling curves though it sought activators and does not explain the sign; nearly all actives have a fitted effect of over 65% in size; many hits overshoot -100%
# Target sequence (P80244 whole entry, looked up): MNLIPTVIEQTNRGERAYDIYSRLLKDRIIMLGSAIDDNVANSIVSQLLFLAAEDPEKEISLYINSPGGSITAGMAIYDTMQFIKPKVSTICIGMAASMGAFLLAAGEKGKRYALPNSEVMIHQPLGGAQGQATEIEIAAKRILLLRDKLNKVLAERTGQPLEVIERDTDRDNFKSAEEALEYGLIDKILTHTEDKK
#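 Purified B. subtilis ClpP, 10 microg/mL final in Tris/HCl pH8 with KCl, BSA, glycerol and Tween-20, cleaved an Abz/nitrotyrosine-quenched decapeptide. Fluorescence (ex 320, em 430) was read at 0 and 20 min at room temperature. Delta was normalized to 5.8 microM ADEP and DMSO/no-enzyme controls.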
# gsp antagonist: antagonizes gsp, the McCune-Albright syndrome mutation. gsp-mutant cells, cAMP HTRF, 30 min; control for the full effect not named in the record. Potency, µM (doses to about 76.9 µM), without a hit: at the highest dose activity change, negative = inhibition, actives largely listed as inhibitors. hit rate 0.4% among 340,000. AID 624288; active = falling curve of any shape with a large fitted effect; inconclusive = falling curve, mostly with a smaller effect; inactive = flat or rising curve; cell line not stated here;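 also: intracellular cAMP measured with PDE inhibitor Ro 20-1724 present during compound exposure; potency is read from the fitted curve at half-maximal effect; % is scaled to controls: 0 for no effect and ±100 for the full control effect; nearly all actives have a fitted effect of over 65% in size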
#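 HTRF cAMP measurement after 30 min RT detection following 30 min, 37C compound treatment alongside […] (added as 300 uM solution) in G418-selected cells seeded at 2000/well and grown 16–24 h.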
# D2 ag: agonists of human D2 dopamine receptor (beta-arrestin). hit rate 0.084% among 360,000. DiscoveRx PathHunter D2 beta-arrestin, luminescence, 90 min; 100% = 57 uM dopamine signal. P14416. AID 624465. activation, % (no concentration beside the values); in the data active = activation above about 40%; inconclusive = about 15% to 40%; inactive = below about 15%; also: compound concentration not given in the record; the text of the record calls up to 30% inactive
# Target sequence (P14416 whole entry, looked up): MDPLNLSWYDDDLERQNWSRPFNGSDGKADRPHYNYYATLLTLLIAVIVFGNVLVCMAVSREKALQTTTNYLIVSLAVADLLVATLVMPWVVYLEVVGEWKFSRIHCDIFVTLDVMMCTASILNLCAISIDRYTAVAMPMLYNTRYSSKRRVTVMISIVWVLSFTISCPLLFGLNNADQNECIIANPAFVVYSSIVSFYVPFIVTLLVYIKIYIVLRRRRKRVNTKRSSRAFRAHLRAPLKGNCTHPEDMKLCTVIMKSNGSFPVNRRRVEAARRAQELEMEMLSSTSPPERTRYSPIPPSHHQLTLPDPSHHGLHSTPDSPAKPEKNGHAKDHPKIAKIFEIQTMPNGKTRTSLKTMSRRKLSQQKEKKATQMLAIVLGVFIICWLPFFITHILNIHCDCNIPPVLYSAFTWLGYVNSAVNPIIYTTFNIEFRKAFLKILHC
#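 DiscoveRx PathHunter D2 beta-arrestin cells (2,100/well) attached overnight, then compound-stimulated 90 min at 37 C in HBSS/10 mM HEPES/0.1% Tween-20 buffer; beta-galactosidase complementation read by luminescence after 1 h at ambient temperature. Dopamine 57 uM final (EC100) as control.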
# gsp ag: activates gsp, the McCune-Albright syndrome mutation; gsp mutant cells, cAMP HTRF, 30 min; control for the full effect not named in the record; Potency, µM (titrated, usually from 76.9 µM), without a hit: top-dose activation (cAMP increase), hits mostly activators; hit rate 0.13% among 340,000; AID 624287; active = well fitted activation curve with a large enough effect; inconclusive = small, poorly fitted or top-dose-only effect, or another doubt; inactive = no such curve, though single readings can be large or run the other way; cell line not stated here;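 also: phosphodiesterase inhibitor Ro 20-1724 added with compounds to block cAMP breakdown; potency is read from the fitted curve at half-maximal effect; nearly all actives have a fitted effect of over 60% in size; about a fifth of the inactives were tested at one dose only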
#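 Cells in DMEM/10% FBS with G418 were pretreated with compounds in DMSO plus […] (300 uM stock) for 30 min at 37C. cAMP was measured by HTRF (cAMP-d2 plus anti-cAMP antibody-K) after 30 min at room temperature.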
# Sfp PPTase inh: inhibitors of Bacillus subtilis Sfp phosphopantetheinyl transferase. Q9F4F7. Biochemical Sfp PPTase activity, qHTS. Potency, µM, without a hit: max response, negative = inhibition, most hits filed as inhibitors. hit rate 3.5% among 310,000. AID 1490; active = well fitted inhibition curve with a large enough effect; inconclusive = small, poorly fitted or top-dose-only effect, or another doubt; inactive = no such curve, though single readings can be large or run the other way;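 also: the enzyme is Sfp with the accession as filed and its product quenches rhodamine fluorescence; potency is read from the fitted curve at half-maximal effect; 0% = enzyme reaction without inhibitor and -100% = no enzyme wells; top concentration of the series not given in the record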
#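 Compounds were incubated with enzyme (final 15 nM) for 15 min at room temperature before substrate addition started the reaction. Fluorescence at 525 nm excitation, 598 nm emission was recorded immediately and after 30 minutes.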
# Menin MLL FP FL: displaces fluorescein MLL peptide from human menin | AID 1766 | Fluorescence polarization, fluorescein-MLL peptide displacement from menin | 290,000 tested, under 10 active | FP activity change, % at 61.4 µM; inconclusive = falling polarisation curve, or a change in total fluorescence; inactive = total fluorescence flat and polarisation flat or rising; no compound was filed as active; the % refers to the polarisation; negative = inhibition;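 also: % of control where 0% means no effect; inhibitors lower the polarisation; unlabelled MLL peptide was the positive control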
# An asterisk follows results filed as active; ? = inconclusive; / = not tested or not shown; & = joins results of further samples; [ ] = remark or other dose.
no.	smiles	PINK1 expr mod	ClpP mod	gsp antagonist	D2 ag	gsp ag	Sfp PPTase inh	Menin MLL FP FL
1	O=C1CCCc2ccccc2N1Cc1ccccc1	0.5%	2.7%	1%	-0.6	-32%	5%	-2.0
2	CN(Cc1ccccc1)S(=O)(=O)c1ccc(Cl)c(C(=O)OCC(N)=O)c1	1.6%	/	-11%	4.3	4%[15.4 µM]	6%	-0.6
3	CN(C)S(=O)(=O)c1ccc(N2CCCC2)c(C(=O)Nc2cccc(F)c2)c1	-0.1%	-2.7%	1%	-4.1	-58%[inhibitor]	-2%	1.1
4	CC(C)N(C(=O)C(=O)c1cccn1-c1ccccc1C#N)C(C)C	-1.5%	-2.0%	1%	-1.7	-23%	11%	2.0
5	COc1cc2c3nnc(-c4ccccc4)c-3cn(Cc3ccc(F)cc3)c2cc1OC	1.8%	/	1%	0.0	24%[15.4 µM]	-18%	5.2
6	Cc1ccc2c(c1)C(=O)C(=O)N2Cc1ccc(F)cc1	1.4%	-1.2%	2%	-8.9	/	/	/
7	COCC(C)n1c(C)cc(C(=O)CSc2nnc(-c3ccco3)o2)c1C (centres undefined)	0.3%	/	-12%	2.7	-27%	/	/
8	Cc1cc(N)n2nc(C(F)(F)F)nc2n1	1.8%	/	-9%	6.3	6%	15%	11
9	COC(=O)C1CSC(C(=O)OC)N1C(=O)Nc1c(C)cccc1C (centres undefined)	?	0.2%	10%	-1.7	-59%[inhibitor]	5%	4.0
10	O=C1CCN(CCc2ccccc2)CCN1[C@H](COc1ccccc1)c1ccccc1	15%	0.8%&-1.6%	-21%	4.0	/	-5%	2.5
11	Cc1c(C(=O)NCc2ccc(F)cc2)oc2ccc(S(=O)(=O)N3CCOCC3)cc12	1.3%	/	?	5.9	-3%[15.4 µM]	7%	2.6
12	CC(C)(C)c1ccc2oc(=O)cc(-c3cccc(-c4ccc(C(F)(F)F)cc4)c3)c2c1	0.3%	-6.5%	-1%	-3.5	/	/	/
13	C/C(CC(=O)NC(C)(C)C)=N\NC(=O)c1ccccc1N	3.7%	/	18%	-6.7	-12%[15.4 µM]	-7%	2.3
14	COCCN(C(=O)COC(=O)CCn1c(C)csc1=O)c1c(N)n(Cc2ccccc2)c(=O)[nH]c1=O	0.8%	-1.6%	10%	-4.8	11%	/	/
15	Cc1cccc(NC(=O)CSc2n[nH]c(-c3ccncc3)n2)c1C	-1.4%	-0.2%	-4%	6.1	26%	-3%	-0.3
16	COc1ncc2nc(-c3cc(F)cc(F)c3)c(=O)n(CCc3ccccc3)c2n1	5.4%	/	/	/	/	?	1.4
17	O=C(O)C1C2C=CC3(CN(C4CCCC4)C(=O)C13)O2 (centres undefined)	-5.2%	-4.2%	13%	-1.6	-30%[inhibitor]	5%	2.3
18	CCc1nnc(NC(=O)c2cc(S(=O)(=O)N3CCN(c4ccccc4)CC3)ccc2Cl)s1	-0.9%	3.6%	-1%	-0.4	-39%[inhibitor]	4%	4.5
19	O=C(NCc1cccs1)c1cccnc1Cl	-1.0%	-1.1%	8%	0.7	2%[15.4 µM]	23%	6.6
20	Cc1ccc(S(=O)(=O)NCCCNc2ccc([N+](=O)[O-])cc2)cc1	-0.2%	/	-30%	6.4	-48%[inhibitor]	-12%	1.1
21	COc1ccc(Cc2nnc(SCc3ccc([N+](=O)[O-])cc3)o2)cc1	-1.8%	-0.8%	2%	-0.8	2%[15.4 µM]	5%	-7.1
22	Cc1ccccc1NC(=O)C1COc2ccccc2O1 (centres undefined)	0.5%	1.6%	9%	-4.3	1%	14%	0.1
23	O=C(CSc1ccc([N+](=O)[O-])cc1)Nc1nnc(C2CC2)s1	-0.8%	-27%	-7%	-3.4	5%[15.4 µM]	/	/
24	CC(C)CNC(=O)CSc1ccc(S(=O)(=O)N(C)C2CCCCC2)cn1	-1.0%	-0.7%	-3%	-1.4	-9%[15.4 µM]	/	/
25	CN(C)CCCNC(=O)c1cc2c3ccccc3n(C)c2s1	/	0.5%	12%	0.6	2%	-10%	3.2
26	CSc1nnc(-c2ccc(C(F)(F)F)nc2C)o1	1.5%	/	8%	-2.8	-8%[15.4 µM]	10%	6.9
27	O=C(c1ccc(Cl)cc1)C1C2C(=O)N(c3ccccc3)C(=O)C2C2CCCN21 (centres undefined)	0.2%	1.3%	8%	-1.1	4%	-24%	?
28	Oc1ccc2oc3c(c2c1)CCCC3	-0.9%	-2.2%	8%	-3.6	?	4%	0.2
29	OCCC1CN(C2CSCCSC2)CCN1Cc1ccccc1 (centres undefined)	1.4%	/	1%	-1.3	9%	7%	1.4
30	O=c1nc(-c2ccccc2)cn[nH]1	2.7%	-2.2%	8%	-4.9	-5%	11%	4.2
31	O=C(O)CSCC(=O)N1CCN(c2ncnc3scc(-c4ccccc4)c23)CC1	1.1%	-2.3%	-2%	5.0	8%	13%	-4.3
32	CC(=O)OC(C(=O)N1CCN(c2ccccc2F)CC1)c1ccccc1 (centres undefined)	-1.3%	-0.5%	-4%	-0.8	-2%	25%	1.0
33	O=C(O)CCSc1nnc(-c2ccc3c(c2)OCO3)o1	-1.6%	?	-2%	-1.4	3%	-2%	0.1
34	COc1ccc(CCOC(=O)c2ccc(N)c([N+](=O)[O-])c2)cc1	0.0%	-0.2%	-22%	0.5	4%	-8%	/
35	O=C1c2ccccc2C(=O)N1CCCCN(C(=O)c1cc([N+](=O)[O-])ccc1Cl)c1ccc(Cl)cc1	2.0%	-2.1%	-6%	2.8	-6%[15.4 µM]	4%	-0.1
36	Cc1cc(=O)[nH]c2c(C)cc(S(=O)(=O)NCc3ccccc3)cc12	1.5%	-6.4%	14%	4.2	-8%[15.4 µM]	5%	-6.7
37	O=C(Nc1nnc(Cc2ccccc2)s1)c1cnccn1	2.7%	0.8%	5%	9.6	-33%[inhibitor]	-17%	3.8
38	CS(=O)(=O)c1cccc(NC(=O)C2CC2)c1	0.0%	/	0%	-2.5	?	17%	-5.4
39	N#C/C(=C\c1cccs1)C(=O)NCc1ccccc1	6.7%	-0.3%	12%	-4.1	1%[15.4 µM]	8%	0.0
40	COc1ccc(CC(=O)NNC(=O)COc2ccc(F)cc2)cc1S(=O)(=O)N1CCOCC1	1.0%	-10%	14%	-0.8	-13%	/	/
41	CCN=C1SC(CC(=O)Nc2ccccc2)C(=O)N1CC (centres undefined)	?	2.3%&-1.7%	7%&14%	1.3&-1.6	6%[15.4 µM]	14%	1.2
42	O=C1COc2ccc(S(=O)(=O)Nc3ccc(F)cc3)cc2N1	0.2%	-1.6%	-2%	11	2.2µM*	16%	/
43	COc1ccccc1N1CCN(c2nccc(C)n2)CC1	3.2%	/	0%	3.4	-141%[inhibitor]	5%	0.7
44	C#CCOCCOCCOCCNc1nc(N2CCN(C(=O)Cn3cc(CC(C)O)nn3)CC2)nc(N2CCN(C(=O)[C@H](CCCCN)n3cc(CCCC)nn3)CC2)n1 (some centres undefined)	0.3%	1.2%	1%	-3.7	/	/	/
45	NC(=O)CSc1nnc2ccc(-c3ccco3)nn12	-0.7%	?	3%	-2.9	?	21%	5.5
46	CC1(C)CC(=O)C=C(NNC(=O)C2CCCCC2)C1	-1.3%	0.5%	12%	-2.3	-8%	5%	0.7
47	Oc1ccccc1C1SC(c2ccccc2O)SC(c2ccccc2O)S1 (centres undefined)	-2.1%	/	3%	6.5	8%	/	/
48	CCOc1ccc(CN2CCN(C(=O)c3cccc4ccccc34)CC2)cc1	2.0%	-0.9%	-17%	-2.4	-2%	-24%	-1.7
49	NC(=O)c1ccc(NC(=O)CCN2C(=O)c3ccccc3C2=O)cc1	-0.1%	-1.9%	7%	-4.5	20%[15.4 µM]	8%	-13
50	CCN1CCN(CCNC(=O)c2ccc(/C=C3/Sc4ccccc4N(Cc4cccc(C)c4)C3=O)cc2)CC1	-1.8%	-4.1%	14%	12	16%	40µM*	2.2

# Next part:
no.	smiles	PINK1 expr mod	ClpP mod	gsp antagonist	D2 ag	gsp ag	Sfp PPTase inh	Menin MLL FP FL
51	COc1cccc(CN2CCN(C(c3ccccc3)c3ccccc3)CC2)c1O	?	/	-4%	-0.6	1%	?	-1.6
52	O=C(NC12CC3CC(CC(C3)C1)C2)c1ccc(Br)o1	3.0%	/	2%	3.3	-16%	7%	5.2
53	Cc1cccc(N2CCN(S(=O)(=O)c3cccc4nonc34)CC2)c1C	15%	2.6%	0%	0.5	-28%	5%	4.0
54	CCOC(=O)c1cnn(CCOC(=O)c2ccc(F)cc2)c1NC(=O)c1ccc(F)cc1	4.9%	-2.1%	8%	1.0	-7%[15.4 µM]	-2%	-0.2
55	COC(=O)CNC(=O)C1CCCN1C(=O)CNC(=O)OC(C)(C)C (centres undefined)	-0.6%	1.0%	1%	-1.6	8%	19%	0.2
56	COc1cc(C)c(C(=O)CC(=O)c2c(C)cc(OC)cc2C)c(C)c1	15%	/	-5%	0.8	11%	/	/
57	N#Cc1ccccc1NC(=O)COc1ccc2c(c1)OCO2	2.0%	/	-1%	-1.7	1%	19%	-7.0
58	CCOc1ccc(C(=O)c2cnc3ccccc3c2N2CCN(CC)CC2)cc1	0.9%	1.3%	-8%	1.1	-1%	16%	-0.9
59	CC(C)NC(=O)C1CCCN(S(=O)(=O)c2cccs2)C1 (centres undefined)	0.1%	-1.3%	5%	-1.0	?	6%	1.0
60	CSc1nc2ccccc2c(=O)n1C1CCCCC1	?	/	-10%	0.4	-27%[15.4 µM]	-2%	-2.0
61	Cc1ccsc1-c1nc(CSCC(=O)NCCN2CCCC2)c(C)o1	/	-1.6%	3%	-2.0	34%	17%	2.4
62	COc1ccc(N2CCN(C(c3ccccc3OC)c3nnnn3Cc3ccco3)CC2)cc1 (centres undefined)	0.1%	-1.9%	-3%	-2.6	4%	8%	2.1

# The order is random; 5.1% or so of the library scored in one or more.
